FEN1 inh: qHTS Assay for the Inhibitors of Human Flap endonuclease 1 (FEN1). P39748. Recombinant FEN1 flap cleavage, fluorescence, 15 min. Potency, µM (top dose mostly 114 µM), for inactives: at the top dose activity change, negative = inhibition, actives largely listed as inhibitors. 390,000 compounds, 0.35% hits; also: nearly all actives have a fitted effect of over 65% in size
Target sequence (P39748 whole entry, looked up): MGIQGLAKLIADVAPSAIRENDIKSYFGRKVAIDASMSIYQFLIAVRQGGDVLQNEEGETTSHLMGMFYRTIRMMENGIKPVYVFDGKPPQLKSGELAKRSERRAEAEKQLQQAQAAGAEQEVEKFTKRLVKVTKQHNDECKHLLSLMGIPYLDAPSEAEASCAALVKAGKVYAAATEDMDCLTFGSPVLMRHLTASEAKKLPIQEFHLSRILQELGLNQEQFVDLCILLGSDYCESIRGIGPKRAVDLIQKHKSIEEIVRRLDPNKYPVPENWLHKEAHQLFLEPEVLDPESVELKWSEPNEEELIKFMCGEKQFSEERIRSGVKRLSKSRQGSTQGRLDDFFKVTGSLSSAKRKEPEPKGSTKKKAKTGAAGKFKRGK
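FEN1 at 10 nM, compound pretreatment for 15 min (room temperature), 50 nM final substrate to initiate; endpoint reads at 0 and 15 min; DMSO-only plates used as vehicle background.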
N370S GC: qHTS Assay for Inhibitors and Activators of N370S glucocerebrosidase as a Potential Chaperone Treatment of Gaucher Disease. Potency, µM (series often up to 59.4 µM), inactives show top-dose activity change, negative = inhibition, hits mostly inhibitors. 330,000 compounds, 0.092% hits. AID 2101, 2009. N370S GC spleen homogenate, 4MU-glucoside fluorescence;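 also: 0% = full enzyme activity and -100% = no enzyme basal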
Numbers without * were called inactive; ? = inconclusive; . = not tested or not shown; [ ] = remark or other dose. Calls follow the shape of the dose curve; as a rule, active = well fitted curve in the direction sought with a large enough effect; inconclusive = small, poorly fitted or top-dose-only effect, or another doubt; inactive = no such curve, though single readings can be large; an effect the other way counts as inactive or inconclusive. Unless noted, % is scaled to controls: 0 for no effect and ±100 for the full control effect; potency is read from the fitted curve at half-maximal effect.

SMILES	FEN1 inh	N370S GC
CC(=O)NCCOc1cccc2cccnc12	6.9%	-2.0%
O=C(CSc1nnc(Nc2ccccc2F)s1)NC1CC1	16.4%	.
C[C@H](NC(=O)c1[nH]cnc1C(=O)Nc1ccc(CNC(=O)OC(C)(C)C)cc1)C(=O)OC(C)(C)C	?	16.5%
N#Cc1sc2nc3c(cc2c1N)CCCC3	-4.0%	13.8%
O=C(CCCc1nc2ccccc2s1)Nc1ccccc1	1.8%	7.5%
O=S(=O)(CCN1CCOCC1)c1ccc(Oc2ccc(S(=O)(=O)CCN3CCOCC3)cc2)cc1	0.0%	-1.3%
CCC(C)(C(=O)NC1CCCC1)N(Cc1cccs1)C(=O)Cc1cccs1 (configuration not stated)	-15.0%	-12.7%
CN1CCN(CC(=O)N2c3ccccc3C(=O)Nc3cccnc32)CC1	.	6.9%
O=C(N/N=C/c1ccncc1)c1nn(Cc2ccccc2)c(=O)c2ccccc12	7.0%	7.2%
O=S(=O)(Cc1cnc(Cl)s1)c1ccccc1	7.7%	-0.3%
CCOC(=O)N1CCc2c(sc3c2c(=O)n(-c2ccc(CC)cc2)c(=O)n3Cc2ccc(F)cc2Cl)C1	-1.0%	.
NS(=O)(=O)c1ccc(NC(=S)Nc2ccc(S(=O)(=O)N3CCCC3)cc2)cc1	4.1%	-19.8%
CCOc1ccc(S(=O)(=O)N2CCCC(C(=O)NC3CCCC3)C2)cc1 (configuration not stated)	3.8%	-1.1%
CCCCNC(=O)CCc1c(C)nc2cc(-c3ccccc3)nn2c1C	-8.0%	.
COc1ccc(C2(C(N)=O)CCCCC2)cc1OC	6.3%	7.4%
Cc1cc(Br)c(NC(=O)COC(=O)CC2CC3CCC2C3)c(Br)c1 (configuration not stated)	-6.8%	.
CCOc1ccc(C(=O)NC(=S)Nc2cccnc2)cc1[N+](=O)[O-]	0.0%	-3.3%
O=C(COc1ccccc1)NCC(c1ccc(Cl)cc1)N1CCOCC1 (configuration not stated)	-1.7%	.
CCOC(=O)[C@H]1[C@H]2COc3ccc(C)cc3[C@@H]2N2C(=O)CN(Cc3ccc(OC)cc3)C(=O)[C@@]12C	-2.5%	.
CCN(CC)c1ccc2cc(-c3nc4ccccc4[nH]3)c(=O)oc2c1	4.6%	-0.5%
CC1CCc2c(sc3nc(CN4CCOCC4)nc(N4CCc5ccccc5C4)c23)C1 (configuration not stated)	-1.0%	0.8%
COc1cc(OC)c2c(-c3cccc(-c4ccc(OC)c(F)c4)c3)cc(=O)oc2c1	0.1%	24.3%
CC(C)C(C)NC(=O)COc1ccc(S(=O)(=O)N2CCOCC2)cc1Cl (configuration not stated)	17.2%	1.5%
C#CCCCCCCC#CCN(C)C	0.4%	-10.2%
CC(=O)c1ccc(NC(=O)NC2CCCc3ccccc32)cc1 (configuration not stated)	-5.9%	-2.9%
SMILES	FEN1 inh	N370S GC
CC(NC(=O)COC(=O)CC(c1ccccc1)c1ccccc1)c1ccccc1 (configuration not stated)	-12.6%	-13.0%
CC(C)(C)c1ccc(OCCOCCn2cnc3ccccc3c2=O)cc1	-7.3%	14.6%
COc1ccc(NC(=O)/C=C\C(=O)N(c2ccc(C(C)C)cc2)C(C(=O)NCc2ccco2)c2ccc(C)cc2)cc1 (configuration not stated)	6.3%	.
COc1ccc(CC(=O)NCC2(N3CCCCC3)CCCCC2)cc1	15.6%	-4.3%
O=C(O)c1cccc(N/N=C/C2=C(Cl)c3cc(Cl)ccc3SC2)c1	-10.4%	-13.4%
Cc1nnc(NC(=O)C2COc3ccccc3O2)s1 (configuration not stated)	4.5%	-7.2%
O=C1CC(N2CCSCC2)C(=O)N1CCc1ccccc1 (configuration not stated)	-6.9%	1.2%
COc1ccc(NC(=O)c2nc(SCc3ccccc3F)ncc2Cl)cc1	?	.
O=C(CCn1cccc1)NCc1ccccc1	-5.8%	4.8%
O=C(Nc1ccc(-c2nc3ccccc3o2)cc1)c1cccnc1	-3.3%	11.3%
O=C(c1nn(Cc2ccccc2)c(=O)c2ccccc12)N1CCN(C/C=C/c2ccccc2)CC1	-4.0%	-5.6%
CCOC(=O)COc1ccc(S(=O)(=O)N2CCN(c3ccc(OC)cc3)CC2)cc1	4.9%	-1.4%
O=C(NCCN1C(=O)S/C(=C/c2ccccc2)C1=O)C1CC(=O)N(Cc2ccccc2)C1 (configuration not stated)	0.4%	.
Cc1ccc(CNC(=O)CCCCCn2c(=O)c3sccc3n(CC(=O)N(C)c3ccccc3)c2=O)cc1	0.1%	.
COc1cccc(/C(C)=N/NC(=O)Cc2c(C)[nH][nH]c2=O)c1	-2.9%	9.4%
Cc1cccc(NC(=O)CCCCCN2C(=O)c3ccccc3C2=O)n1	-2.1%	2.2%
COc1ccccc1-n1c(SCC(=O)N(C)C2CCS(=O)(=O)C2)nc2ccccc2c1=O (configuration not stated)	2.9%	-1.6%[2.35 µM]
COc1cc2c(cc1NC(=O)C(C)Sc1cccc[n+]1[O-])oc1ccccc12 (configuration not stated)	-17.3%	8.8%
Cc1nc(-c2ccccc2)nc2[nH]c(-c3ccccc3)cc(=O)c12	0.4%	?
NC(=O)c1cccc([N+](=O)[O-])c1	15.6%	-0.9%
C/C(=C\c1ccccc1)C(=O)NC1CCSC1=O (configuration not stated)	1.3%	4.8%
Cn1cccc1C(=O)NNC(=O)COc1ccc(Br)cc1	7.8%	-3.3%
Nc1cc(C(=O)OCC(=O)NCC2CCCO2)ccc1Cl (configuration not stated)	2.1%	6.0%[2.35 µM]
O=C(NNC(=O)C1CCN(S(=O)(=O)c2ccc(Cl)cc2)CC1)c1ccc(S(=O)(=O)N2CCCCC2)cc1	8.9%	-18.6%
Cc1cc(C)c[n+](C(C)C(=O)c2ccc(Cl)cc2)c1 (configuration not stated)	0.3%	-12.7%
SMILES	FEN1 inh	N370S GC
CCOC(=O)C1=C(C)OC(N)=C(C#N)C1c1ccc(C)s1 (configuration not stated)	-0.2%	10.6%
CCOc1ccc(C(=O)N2CCN(c3cnn(-c4ccccc4)c(=O)c3Cl)CC2)cc1	2.0%	2.5%
O=S(=O)(NCC(c1cccs1)S(=O)(=O)c1ccccc1)c1ccc(F)c(C(F)(F)F)c1 (configuration not stated)	-9.0%	.
N#CC1=C(N)Oc2c(O)cc3ccccc3c2C1c1ccsc1 (configuration not stated)	5.3%	-2.5%
CC(C)(C)c1ccc(NC(=O)CSc2nnc(-c3n[nH]c4ccccc34)o2)cc1	-16.7%	9.6%
COc1ccc(S(=O)(=O)N2CCN(Cc3nc4ccc(C)cc4o3)CC2)cc1	-11.0%	.
CCCCc1nnc(NC(=O)c2ccc3c(=O)n4c(nc3c2)CCC4)s1	-5.5%	-1.8%
COc1cc(CNCc2cccs2)ccc1OCC(N)=O	-17.5%	-7.3%
COCCN1C(=O)C(=O)/C(=C(/O)c2ccc(S(=O)(=O)N3CCOCC3)cc2)C1c1ccc(OC)c(OC)c1 (configuration not stated)	-10.8%	-3.8%
Cc1cccc(NC(=O)c2ccccc2NC(=O)c2ccco2)c1	-0.2%	0.5%
CCS(=O)(=O)N1CCc2cc(C(=O)N3CCN(c4ccccc4OC)CC3)ccc21	15.1%	.
Cc1csc(SCc2nc3scc(-c4ccccc4)c3c(=O)[nH]2)n1	-4.4%	-1.7%
COc1ccccc1N1CCN(c2ncnc3c2cnn3-c2cc(Cl)ccc2C)CC1	-17.6%	.
COc1ccc(C(=O)Nc2ccc(NC(=O)c3cccs3)c(OC)c2)cc1Cl	7.6%	-1.3%
Nc1n[nH]c(C2CCCCC2)n1	2.3%	2.5%
COc1ccc(NC(=O)c2cccc(N3C(=O)C4C5C=CC(C5)C4C3=O)c2)c(OC)c1 (configuration not stated)	11.6%	-5.0%
COC(=O)CCN(C(=O)c1cc(OC)c(OC)c(OC)c1)c1ccccn1	-0.9%	2.9%
CC1CC(C)CN(C(=O)c2cccc(S(=O)(=O)NCc3ccccc3)c2)C1 (configuration not stated)	1.5%	.
CC(=O)Nc1ccc(Oc2ncccn2)c(Cl)c1	5.5%	2.8%
O=C(CN1C(=O)NC2(CCCCC2)C1=O)N1CCN(S(=O)(=O)c2ccccc2)CC1	-1.0%	2.3%
Cc1cc(N2CCN(c3cccc(C)c3C)CC2)nc(-c2ccccc2)n1	-3.8%	?
c1ccc(CSc2ccc(-c3ccc4c(c3)OCO4)nn2)cc1	-3.7%	12.7%
CC[C@@H](C)[C@@H]1CN([C@@H](C)CN2CCC[C@H]2CN2C(N)=NC[C@@H]2Cc2ccccc2)C(=N)N1CCc1ccc(Cl)c(Cl)c1	-21.9%	.
C=CCN=C(NC#N)SC	23.4%	5.3%
CCCC(=O)C1=C(O)C(C(=O)OC)C(C)(C)CC1=Nc1ccc(C)cc1 (configuration not stated)	0.6%	-8.4%

One compound at a time (already shown). Screens in order: FEN1 inh, N370S GC
Profile of COC(=O)CCN(C(=O)c1cc(OC)c(OC)c(OC)c1)c1ccccn1 : -0.9%, 2.9%
Profile of CCCCc1nnc(NC(=O)c2ccc3c(=O)n4c(nc3c2)CCC4)s1 : -5.5%, -1.8%

Continuation.
SMILES	FEN1 inh	N370S GC
COc1ccc(NC(=O)CSCc2cc(=O)c3cc(C)ccc3[nH]2)cc1	-9.2%	.
CCc1c(C(=O)Nc2cc(C)ccc2OC)[nH]c(C)c1C(C)=O	1.0%	-5.0%
O=C(Cn1nnc(-c2ccccc2NC(=O)c2cccs2)n1)Nc1ccccc1	-0.8%	12.3%
c1csc(-c2nnc(N3CCCCCC3)c3ccccc23)c1	3.9%	?
CCOc1nc(-c2ccc(C)cc2)ccc1-c1noc(-c2ccccc2F)n1	4.2%	.
CCCN(CCC)C(=O)c1c2c(nc3ccccc13)C(=O)N(C1CCCCC1)C2	1.0%	.
Nc1n[nH]c2c1C1(CCCCC1)Cc1ccccc1-2	-0.2%	14.6%
O=C(NC(=S)N1CCN(c2ccc([N+](=O)[O-])cc2)CC1)c1ccccc1Cl	-14.3%	2.1%
CCOC(=O)Cn1c(S(=O)(=O)Cc2ccc(F)cc2)nc(-c2ccccc2)c1-c1ccccc1	-21.2%	9.8%
COc1cc(NC(=O)CCC(=O)O)nc(OC)n1	-8.3%	-5.7%
Clc1cccc(-c2ccc(C=Nc3ccc(N4CCOCC4)cc3)o2)c1Cl	9.8%	-5.6%
O=C(NNc1ccc(Cl)cc1)c1cccs1	-3.7%	4.3%
CN(C)S(=O)(=O)c1ccc(C(=O)NNC(=O)C23CC4CC(CC(C4)C2)C3)cc1	2.5%	.
O=C(COc1ccccc1F)N1CCc2ccccc2C1	-3.1%	-2.1%
S=C(NC1CCCCC1)N1CCN(C2CCCCC2)CC1	0.8%	19.0%
Cc1cc(NCc2ccccn2)n2c(nc3ccccc32)c1C#N	14.6%	7.2%
c1ccc(-n2ncc3c(NCc4cccnc4)ncnc32)cc1	-0.7%	-10.9%
COc1ccc(-n2c(SCC(=O)Nc3ccccc3C)nc(O)c(Cc3ccccc3)c2=O)cc1	0.2%	-14.7%
COc1cc2c(cc1N/C=C(\C#N)c1nc(-c3ccccc3)cs1)oc1ccccc12	5.3%	-2.5%
O=c1cc(-c2ccccc2)oc2cc(O)c(O)cc12	.	-7.0%
Cc1ccc(-n2nnnc2SCC(=O)NCC2CCCO2)cc1C (configuration not stated)	-3.9%	-1.1%
O=C(C1CC1)N1CCN(C(c2ccccc2)c2ccccc2)CC1	-6.4%	5.3%
COc1ccc(-n2cc(-c3ccccc3)c3c(N4CCN(CCO)CC4)ncnc32)cc1	-5.6%	?
CCOC(=O)CN1C(=O)Nc2ccc(Br)cc2C1c1ccccc1 (configuration not stated)	-19.0%	9.2%
C/C(=N\OCC(=O)Nn1c(C)nc2ccccc2c1=O)c1cccs1	15.8%	-6.8%
Cc1ccc(/C=C2/C(=N)N3N=C(CC(=O)N4CCCC4)SC3=NC2=O)cc1	-9.9%	-3.0%

Nothing new here: an excerpt of the list.
SMILES	FEN1 inh	N370S GC
COc1ccc(NC(=O)CSCc2cc(=O)c3cc(C)ccc3[nH]2)cc1	-9.2%	.
CCc1c(C(=O)Nc2cc(C)ccc2OC)[nH]c(C)c1C(C)=O	1.0%	-5.0%
O=C(Cn1nnc(-c2ccccc2NC(=O)c2cccs2)n1)Nc1ccccc1	-0.8%	12.3%
c1csc(-c2nnc(N3CCCCCC3)c3ccccc23)c1	3.9%	?
CCOc1nc(-c2ccc(C)cc2)ccc1-c1noc(-c2ccccc2F)n1	4.2%	.
CCCN(CCC)C(=O)c1c2c(nc3ccccc13)C(=O)N(C1CCCCC1)C2	1.0%	.
Nc1n[nH]c2c1C1(CCCCC1)Cc1ccccc1-2	-0.2%	14.6%
O=C(NC(=S)N1CCN(c2ccc([N+](=O)[O-])cc2)CC1)c1ccccc1Cl	-14.3%	2.1%
CCOC(=O)Cn1c(S(=O)(=O)Cc2ccc(F)cc2)nc(-c2ccccc2)c1-c1ccccc1	-21.2%	9.8%
COc1cc(NC(=O)CCC(=O)O)nc(OC)n1	-8.3%	-5.7%
Clc1cccc(-c2ccc(C=Nc3ccc(N4CCOCC4)cc3)o2)c1Cl	9.8%	-5.6%
O=C(NNc1ccc(Cl)cc1)c1cccs1	-3.7%	4.3%
CN(C)S(=O)(=O)c1ccc(C(=O)NNC(=O)C23CC4CC(CC(C4)C2)C3)cc1	2.5%	.
O=C(COc1ccccc1F)N1CCc2ccccc2C1	-3.1%	-2.1%

Not all compounds are listed, and most or all hits are left out here.
